Menin MLL FP FL = inhibitors of human menin-MLL interaction, wild-type MLL peptide | 290,000 tested, under 10 active | AID 1766 | Fluorescence polarization, fluorescein-MLL peptide displacement from menin | FP activity change, % at 61.4 µM; inconclusive = falling polarisation curve, or a change in total fluorescence; inactive = total fluorescence flat and polarisation flat or rising; no compound was filed as active; the % refers to the polarisation; negative = inhibition;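 also: % of control where 0% means no effect; inhibitors lower the polarisation; unlabelled MLL peptide was the positive control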
Sfp inh = Sfp phosphopantetheinyl transferase inhibition; Q9F4F7; Biochemical Sfp PPTase activity, qHTS; Potency, µM, for the others: max response, negative = inhibition, most hits filed as inhibitors; hit rate 3.5% among 310,000; AID 1490; active = well fitted inhibition curve with a large enough effect; inconclusive = small, poorly fitted or top-dose-only effect, or another doubt; inactive = no such curve, though single readings can be large or run the other way;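 also: the enzyme is Sfp with the accession as filed and its product quenches rhodamine fluorescence; potency is read from the fitted curve at half-maximal effect; 0% = enzyme reaction without inhibitor and -100% = no enzyme wells; top concentration of the series not given in the record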
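With Hepes-Na pH 7.6 buffer containing 10 mM MgCl2, Sfp (15 nM) modified BHQ-2-YbbR (12.5 uM) using rhodamine-CoA (5 uM). Two reads 30 minutes apart at 525/598 nm yielded each well's rate.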
gsp ag = gsp mutant agonism; AID 624287; Potency, µM (titrated, usually from 76.9 µM), for the others: at the top dose activation (cAMP increase), actives largely listed as activators; gsp mutant cells, cAMP HTRF, 30 min; control for the full effect not named in the record; hit rate 0.13% among 340,000; active = well fitted activation curve with a large enough effect; inconclusive = small, poorly fitted or top-dose-only effect, or another doubt; inactive = no such curve, though single readings can be large or run the other way; cell line not stated here;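 also: phosphodiesterase inhibitor Ro 20-1724 added with compounds to block cAMP breakdown; potency is read from the fitted curve at half-maximal effect; nearly all actives have a fitted effect of over 60% in size; about a fifth of the inactives were tested at one dose only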
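Cells stably selected in G418 were plated at 2000/well, grown 16-24 hr, then given compounds in DMSO with the PDE inhibitor […] (300 uM solution added) for 30 min at 37C; cAMP was read by HTRF.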
gsp antagonist = gsp mutant antagonism. hit rate 0.4% among 340,000. Potency, µM (titrated, usually from 76.9 µM), without a hit: top-dose activity change, negative = inhibition, actives largely listed as inhibitors. gsp-mutant cells, cAMP HTRF, 30 min; control for the full effect not named in the record; active = falling curve of any shape with a large fitted effect; inconclusive = falling curve, mostly with a smaller effect; inactive = flat or rising curve; cell line not stated here;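 also: intracellular cAMP measured with PDE inhibitor Ro 20-1724 present during compound exposure; potency is read from the fitted curve at half-maximal effect; % is scaled to controls: 0 for no effect and ±100 for the full control effect; nearly all actives have a fitted effect of over 65% in size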
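Cells, 2000/well, grown 16–24 h in DMEM 10% FBS with 0.5 mg/ml G418, then compounds plus […] (300 uM addition stock), 30 min at 37C. cAMP read by HTRF (cAMP-d2 and anti-cAMP antibody-K in lysis buffer) after 30 min RT.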
ClpP mod = qHTS Assay for Activators of ClpP | ATP-dependent Clp protease proteolytic subunit (Bacillus subtilis (strain 168)), P80244 | purified B. subtilis ClpP, FRET peptide cleavage, 20 min | Potency, µM (top dose mostly 57.5 µM), without a hit: at the highest dose activity change, negative = active | hit rate 1.9% among 340,000 | AID 651965, 2013; active = well fitted falling curve with a large enough effect; inconclusive = small, poorly fitted or top-dose-only effect; inactive = no such curve, though single readings can be large or run the other way; also: potency is read from the fitted curve at half-maximal effect; the source files actives as falling curves though it sought activators and does not explain the sign; nearly all actives have a fitted effect of over 65% in size; many hits overshoot -100%
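Buffer: 100 mM Tris/HCl pH8, 100 mM KCl, 0.05% low protease BSA, 2.5% glycerol, 0.01% Tween-20. ClpP 10 microg/mL final; 20 min RT; delta FRET normalized to ADEP and DMSO controls.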
D2 agonist = agonists of human D2 dopamine receptor (beta-arrestin). P14416. activation, % (test concentration not listed). DiscoveRx PathHunter D2 beta-arrestin, luminescence, 90 min; 100% = 57 uM dopamine signal. hit rate 0.084% among 360,000; in the data active = activation above about 40%; inconclusive = about 15% to 40%; inactive = below about 15%; also: compound concentration not given in the record; the text of the record calls up to 30% inactive
Target sequence (P14416 whole entry, looked up): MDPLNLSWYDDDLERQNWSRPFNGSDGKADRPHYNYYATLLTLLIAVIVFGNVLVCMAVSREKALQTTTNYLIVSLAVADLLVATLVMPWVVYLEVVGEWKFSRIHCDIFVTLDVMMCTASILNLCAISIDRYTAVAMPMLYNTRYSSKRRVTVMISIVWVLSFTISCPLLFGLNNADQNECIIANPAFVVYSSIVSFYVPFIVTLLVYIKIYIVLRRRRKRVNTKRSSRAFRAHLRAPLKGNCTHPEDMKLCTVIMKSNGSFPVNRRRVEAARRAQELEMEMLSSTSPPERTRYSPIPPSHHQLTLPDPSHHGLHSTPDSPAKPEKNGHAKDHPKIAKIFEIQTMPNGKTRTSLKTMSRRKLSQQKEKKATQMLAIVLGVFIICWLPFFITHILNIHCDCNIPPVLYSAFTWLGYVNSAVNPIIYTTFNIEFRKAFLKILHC
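DiscoveRx PathHunter D2 beta-arrestin cells (2,100/well) attached overnight, then compound-stimulated 90 min at 37 C in HBSS/10 mM HEPES/0.1% Tween-20 buffer; beta-galactosidase complementation read by luminescence after 1 h at ambient temperature. Dopamine 57 uM final (EC100) as control.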
PINK1 modulator = PINK1 expression modulation | PINK1 immunofluorescence, high-content cytometry, 24 h | Potency, µM (top dose mostly 76.6 µM), inactives show top-dose activation (PINK1 increase), usual class: activators | hit rate 0.2% among 410,000 | AID 624263; active = well fitted activation curve with a large enough effect; inconclusive = small, poorly fitted or top-dose-only effect; inactive = flat fitted curve, though single readings scatter; cell line not stated here;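 also: potency is read from the fitted curve at half-maximal effect; % of control where 0% means no effect; nearly all actives have a fitted effect of over 65% in size; a mitochondrial uncoupler was the plate control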
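Compound titrations (5 concentrations, 24 h) on a stable cell line; DMSO and CCCP controls. Endpoint: fixed-cell PINK1 immunofluorescence with mitochondrial, cell and nuclear markers, scanned by microplate cytometer.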
Active calls of the source: *; ? = inconclusive; . = no result given; [ ] = remark or other dose. This is a random part of the collection, and some 5.1% of all compounds hit somewhere here.

Letter code – A = Menin MLL FP FL; B = Sfp inh; C = gsp ag; D = gsp antagonist; E = ClpP mod; F = D2 agonist; G = PINK1 modulator
Cc1[nH]c2ccccc2c1/C=N/NC(=O)CNC(=O)COc1ccccc1
  A: 2.3; B: 10%; C: 3%; D: 2%; E: .; F: -4.4; G: 2.1%
NC(=O)c1ccc(NC(=O)COC(=O)/C=C/c2cn(-c3ccccc3)nc2-c2cccnc2)cc1
  A: 22; B: -17%; C: 32%; D: -5%; E: 28µM*; F: -0.6; G: ?
C[C@H](CCCC/C=C/C(=O)O)O[C@@H]1O[C@@H](C)[C@H](O)C[C@H]1O
  A: .; B: .; C: .; D: 5%; E: -2.3%; F: -1.9; G: 0.8%
COC(=O)Cc1csc(Nc2ccccc2)n1
  A: 7.7; B: 4%; C: 7%; D: 4%; E: 1.8%; F: 0.4; G: 0.2%
Cc1ccc(CC(=O)N2CCN(c3ccc([N+](=O)[O-])cc3)CC2)cc1
  A: 0.8; B: 1%; C: -63%[inhibitor]; D: -21%; E: .; F: 9.5; G: -0.2%
COc1ccccc1N1CCN(C2CCCN(C(=O)C3=NN(C)C(=O)CC3)C2)CC1 (stereo not drawn)
  A: .; B: 18%; C: -10%; D: 8%; E: 2.3%; F: 2.8; G: 1.1%
CC(C)N(NC(=O)c1cccc2ccccc12)C(C)C
  A: -0.4; B: 8%; C: -5%[15.4 µM]; D: -3%; E: .; F: -0.6; G: -1.8%
CN(C)c1ccc(C=NCC2(O)CCOC(C)(C)C2)cc1 (stereo not drawn)
  A: -0.1; B: -2%; C: 0%; D: 1%; E: -9.0%; F: 0.9; G: 0.5%

A different layout for part of the listing above:
Molecule: COc1ccccc1N1CCN(C2CCCN(C(=O)C3=NN(C)C(=O)CC3)C2)CC1 (stereo not drawn)
  Menin MLL FP FL: . | Sfp inh: 18% | gsp ag: -10% | gsp antagonist: 8% | ClpP mod: 2.3% | D2 agonist: 2.8 | PINK1 modulator: 1.1%
Molecule: C[C@H](CCCC/C=C/C(=O)O)O[C@@H]1O[C@@H](C)[C@H](O)C[C@H]1O
  Menin MLL FP FL: . | Sfp inh: . | gsp ag: . | gsp antagonist: 5% | ClpP mod: -2.3% | D2 agonist: -1.9 | PINK1 modulator: 0.8%
Molecule: Cc1ccc(CC(=O)N2CCN(c3ccc([N+](=O)[O-])cc3)CC2)cc1
  Menin MLL FP FL: 0.8 | Sfp inh: 1% | gsp ag: -63%[inhibitor] | gsp antagonist: -21% | ClpP mod: . | D2 agonist: 9.5 | PINK1 modulator: -0.2%
Molecule: COC(=O)Cc1csc(Nc2ccccc2)n1
  Menin MLL FP FL: 7.7 | Sfp inh: 4% | gsp ag: 7% | gsp antagonist: 4% | ClpP mod: 1.8% | D2 agonist: 0.4 | PINK1 modulator: 0.2%

3 compounds out of the list, sorted by heavy-atom count, largest number first:
Letter code – A = Menin MLL FP FL; B = Sfp inh; C = gsp ag; D = gsp antagonist; E = ClpP mod; F = D2 agonist; G = PINK1 modulator
NC(=O)c1ccc(NC(=O)COC(=O)/C=C/c2cn(-c3ccccc3)nc2-c2cccnc2)cc1
  A: 22; B: -17%; C: 32%; D: -5%; E: 28µM*; F: -0.6; G: ?
CN(C)c1ccc(C=NCC2(O)CCOC(C)(C)C2)cc1 (stereo not drawn)
  A: -0.1; B: -2%; C: 0%; D: 1%; E: -9.0%; F: 0.9; G: 0.5%
COC(=O)Cc1csc(Nc2ccccc2)n1
  A: 7.7; B: 4%; C: 7%; D: 4%; E: 1.8%; F: 0.4; G: 0.2%

Source: PubChem
